Screening results as filed in PubChem.
UCH37 inh: inhibitors of human UCH37 deubiquitinase, primary screen, biochemical, Ub-AMC cleavage, fluorescence. purified proteasome/UCH37. AID 588478, 2011. inhibition, % (test concentration not listed). hit rate 0.33% among 330,000. Ubiquitin carboxyl-terminal hydrolase isozyme L5 (Homo sapiens), Q9Y5K5;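 active = mean of two replicates above 20%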;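 also: 0% = compound-free wells with enzyme and 100% = wells lacking proteasome; stock transfer was 100 nL into about 20 µL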
Target sequence (Q9Y5K5 whole entry, looked up): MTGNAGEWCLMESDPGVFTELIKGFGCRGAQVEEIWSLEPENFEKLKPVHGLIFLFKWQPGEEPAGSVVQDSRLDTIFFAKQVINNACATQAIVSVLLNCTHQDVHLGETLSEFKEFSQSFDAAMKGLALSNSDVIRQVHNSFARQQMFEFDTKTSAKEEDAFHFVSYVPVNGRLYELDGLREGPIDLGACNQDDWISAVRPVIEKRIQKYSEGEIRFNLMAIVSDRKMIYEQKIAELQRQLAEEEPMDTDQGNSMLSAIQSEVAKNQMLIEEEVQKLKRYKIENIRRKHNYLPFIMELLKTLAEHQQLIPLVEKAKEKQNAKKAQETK
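assay system = human UCH37 enzyme supplied as purified proteasome complex | amount = proteasome at 0.15 nM in the dispensed enzyme solution | schedule = 30 min compound-proteasome preincubation then 25 min substrate reaction, room temperature | measured by = fluorescence, ex 355 nm, em 460 nm | benchmarks = no-proteasome wells (full inhibition) and compound-free wells (no inhibition)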
E coli growth: E. coli growth inhibition, primary screen, OD600; Escherichia coli growth, 23 h; active compounds read low; OD600 absorbance (test concentration not listed); hit rate 0.21% among 330,000; AID 1053175, 2014;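 active = OD600 absorbance below the run mean of sample wells minus 3.6 SD, in any replicate, cut at about 0.56 in these data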;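 also: stock transfer was 300 nL into about 60 µL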
FGF22 binding: binders of human FGF22 protein, primary screen, FGF22 synaptogenesis inhibitor project, biophysical, thermal shift, single point; Fibroblast growth factor 22 (Homo sapiens), Q9HCT0; recombinant FGF22 thermal shift, SYPRO orange fluorescence; percent of sucrose octasulfate shift, DMSO zero; AID 651658, 2012; calls only at 9.99 µM; hit rate 1.5% among 340,000;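 active = melting point raised past a set limit in the mean and every replicate; three in four hits are not shown here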
Target sequence (Q9HCT0 whole entry, looked up): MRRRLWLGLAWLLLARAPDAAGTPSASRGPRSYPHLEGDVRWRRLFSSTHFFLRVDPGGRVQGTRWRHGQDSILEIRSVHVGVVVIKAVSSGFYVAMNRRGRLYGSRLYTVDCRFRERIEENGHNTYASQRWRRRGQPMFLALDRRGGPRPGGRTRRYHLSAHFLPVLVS
rRNA inh HTS: reduced GFP signal of wild-type E. coli, primary screen, bacterial rRNA inhibitor project, GFP/RFP fluorescence, OD600, single point; GFP signal change (wild-type ribosome), % (test concentration not listed); hit rate 1.6% among 350,000; E. coli WT GFP vs humanized-ribosome RFP mutants, 24 h; active compounds read low; DMSO median 0, no signal -100; AID 720706, 2013;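 active = significant combined selectivity score with lowered wild-type GFP, culture density cut under 30%, mutant RFP and density less affected; inactive = any of these conditions unmet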; also: one replicate is shown; some compounds called inactive have numbers as strong as hits
Beta cell apopt: inhibitors of cytokine-induced beta cell apoptosis, primary screen, luminescence | INS-1E cytokine-induced death, ATP luminescence, 48 h; percent of positive-control rescue, neutral wells zero | protection from apoptosis, % (test concentration not listed) | hit rate 0.8% among 300,000 | AID 435005, 2010;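 active = all replicates at 75% or more, or half of them and the mean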;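 also: 0% = cytokine-treated negative control wells and 100% = positive control rescue; higher means more ATP so stronger rescue from cytokine killing; wells of about 40 µL received 100 nL stock; the first replicate is given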
AF4-AF9 inh: inhibitors of AF4 peptide binding to AF9, primary screen, biochemical, AlphaScreen, biotin-AF4 peptide, FLAG-AF9, single point. Protein AF-9 (Homo sapiens), P42568. inhibition, % at 10 µM. hit rate 0.47% among 350,000. AID 651704, 2012;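 active = every replicate reaching a set inhibition limit, whatever the replicate mean, cut at about 25% in these data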;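 also: 0% = plate neutral control median and 100% = total signal loss; the record names both 10 and 1 µM as test concentration; the first replicate is given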
Target sequence (P42568 whole entry, looked up): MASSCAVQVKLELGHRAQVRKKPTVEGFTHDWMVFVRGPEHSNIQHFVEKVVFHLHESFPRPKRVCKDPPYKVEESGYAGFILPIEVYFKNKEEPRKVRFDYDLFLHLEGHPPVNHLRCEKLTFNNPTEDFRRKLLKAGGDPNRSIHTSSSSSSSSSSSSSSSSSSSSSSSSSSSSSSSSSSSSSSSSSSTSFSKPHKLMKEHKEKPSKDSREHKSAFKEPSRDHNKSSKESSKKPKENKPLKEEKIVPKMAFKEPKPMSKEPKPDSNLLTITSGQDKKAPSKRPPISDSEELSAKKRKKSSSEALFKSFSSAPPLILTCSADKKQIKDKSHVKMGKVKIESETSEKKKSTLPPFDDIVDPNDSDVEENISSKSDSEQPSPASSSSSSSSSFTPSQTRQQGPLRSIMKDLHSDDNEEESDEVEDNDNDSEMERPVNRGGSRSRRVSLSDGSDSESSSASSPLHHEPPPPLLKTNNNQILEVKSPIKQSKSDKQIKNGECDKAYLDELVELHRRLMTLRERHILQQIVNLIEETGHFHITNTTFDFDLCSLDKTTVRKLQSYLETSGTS
T cruzi inh: inhibitors of intracellular T. cruzi growth, primary screen, luminescence, NIH3T3 host cells. inhibition, % (no concentration beside the values). hit rate 1.4% among 300,000. AID 1885, 2009. T. cruzi beta-gal in NIH3T3, 90 h;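 active = mean inhibition across valid replicates above about 55%, limit read from the data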;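 also: signal also drops with host cell toxicity which is not excluded here; 0% = plate median of DMSO wells and 100% = zero luminescence signal; higher percent means less beta-gal luminescence so fewer parasites; stock transfer was 50 nL into about 50 µL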
A1 inh: caspase 3/7 activation in MEF A1-2A-BIM cells, primary screen, A1 inhibitor project, cell-based, luminescence, HTS. Caspase-Glo 3/7 luminescence, 3 h; percent of clofoctol response, vehicle zero. caspase activation, % (test concentration not listed). hit rate 0.066% among 330,000;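 active = over half of replicate activation scores above 10%, or exactly half above 10 with the replicate mean above 10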;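 also: wells of about 30 µL received 50 nL stock; many hits fall short of the cut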
rRNA inh HTS OD600: recorded beside rRNA inh HTS, whose call it bears; OD600 change, %; measured here: OD600 growth;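 optical density of the mix in the first replicate; 0 = DMSO median and -100 = no signal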
rRNA inh HTS RFP: second read-out of rRNA inh HTS, no call of its own (marks repeat the call); RFP signal change, %; measured here: RFP humanized mutant strains;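 first replicate; 0 = DMSO median and -100 = no signal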
Numbers without * were called inactive; i = inactive; · = not tested or not shown; & = joins results of further samples. This is a subset. The share of hits here may be higher or lower than overall.

Structure,UCH37 inh,E coli growth,FGF22 binding,rRNA inh HTS,rRNA inh HTS OD600,rRNA inh HTS RFP,Beta cell apopt,AF4-AF9 inh,T cruzi inh,A1 inh
Cc1ccc(S(=O)(=O)N[C@H](C(=O)OCC(=O)NC(=O)C2CCCCC2)C(C)C)cc1,0.7,0.666,i,8.3,6.0,3.0,-6.1,-1.9,·,0.0
Cc1ccc(C(=O)CCC(=O)Nc2cccnc2)cc1C,5.5,0.678,·,·,·,·,-0.2,·,-10.8,-0.2
CCOc1ccc(C(=O)OCC(=O)N2CCCC2)cc1OCC,5.4,0.642,i,2.7,4.5,-2.1,-2.7,-2.0,-8.8,-0.2
CCC/C(O)=C1\C(=O)CC(c2ccccc2)CC1=NCCc1c(C)[nH]c2ccc(C)cc12 (centres undefined),2.1,·,i,-1.4,2.1,-1.2,7.7,0.4,34.5,1.0
O=c1c2ccccc2oc2cc(NCCCN3CCOCC3)ccc12,-435.7,0.677,i,-14.7,1.6,-14.4,3.8,-4.6,33.6,-1.1
CC1=C(C(=O)OCCOC(C)C)C(c2cccc3ccccc23)NC(=O)N1 (centres undefined),-5.2,0.687,i,9.4,2.4,-1.2,-6.4,-3.0,-9.6,-0.2
O=C(Nc1ccc2c(c1)ncn2C1CCCCC1)c1ccco1,0.8,0.681,·,·,·,·,-2.9,·,-6.4,0.5
O=C(NC(=S)Nc1ccccc1Br)c1cccnc1,-1.1,0.661,i,5.0,0.2,-0.7,·,2.2,-26.2,-0.5
O=C(N/N=C/c1ccc(OC(=O)c2cccs2)cc1)c1cccc(F)c1,·,·,i,13.6,25.8,-5.3,-4.3,-3.0,-8.6,-8.2
CN(C)S(=O)(=O)c1cccc(NC(=O)COC(=O)c2cc(=O)c3ccccc3o2)c1,0.2,0.637,i,9.0,-2.0,1.5,-5.4,-12.8,4.8,1.7
CN1CCN(C(=O)c2cc3nc(-c4ccco4)cc(C(F)(F)F)n3n2)CC1,-205.2,0.648,i,-27.4*,-13.6*,-1.8*,-0.4,-5.1,-7.2,-0.4
Cc1ccc(S(=O)(=O)Oc2cc(N)c3c(n2)CCC3)cc1,0.7,0.654,i,3.6,4.7,-1.8,-5.8,0.5,-5.2,1.2
O=c1c2ccccc2n2c(-c3ccc(F)cc3)nnc2n1Cc1ccccc1,2.2,0.699,i,17.6,8.1,1.1,-9.6,3.2,14.5,0.8
O=C1CN(S(=O)(=O)c2ccccc2)CCN1S(=O)(=O)c1ccccc1,6.6,0.68,·,·,·,·,-1.9,·,-6.7,0.7
Cc1cccc(C(=O)Nc2ccc(N3CCN(S(C)(=O)=O)CC3)cc2)c1,-1.5,0.689,i,13.6,6.2,-2.4,-1.6,-4.7,-6.8,-0.4
CN(C)c1ccc(-n2cccc2/C=C2/SC(=Nc3ccc(F)cc3)NC2=O)cc1,5.7,0.737,i,9.0,4.4,-0.3,19.8,-14.7,9.6,1.1
CC(C)(C)c1ccc(C(=O)NCc2ccccc2)cc1,5.7,0.708,i,8.6,1.2,-1.8,4.9,-0.8,10.1,0.3
CC(=O)c1cc(-c2ccccc2)n(CC(=O)Nc2cccc(C)c2C)c1C,3.8,0.752,i,·,·,·,-8.8,3.8,-0.8,2.0
COc1cc(OC)c(C(=O)Nc2ccc3ccccc3c2)cc1OC,-4.7,0.637,·,·,·,·,-7.0,·,-6.3,-0.1
Cc1n[nH]c(C)c1S(=O)(=O)N1CCN(S(=O)(=O)c2ccccc2C#N)CC1,1.6,0.662,i,·,·,·,·,-3.6,·,·
CCOc1ccc(C(C)=O)cc1Cc1c(O)nc(N)[nH]c1=O,-0.6,0.729,i,24.5,15.4,-8.6,-5.0,-1.7,-8.3,0.0
O=C(N=Nc1c(O)[nH]c2ccccc12)c1ccccc1NS(=O)(=O)c1cccs1,7.1,0.692,i,·,·,·,·,3.4,9.3,-0.9
Cc1cc(C)c2nc(SCC(=O)NC(=O)c3cccn3C)cc(C)c2c1,-1.4,0.639,i,-6.0,-1.3,-0.7,-10.1,-1.0,-3.7,1.7
CC1CCCCN1C(=O)CCNC(=O)Cn1cnc2ccccc2c1=O (centres undefined),-1.5,0.65,i,6.0,0.6,-0.1,-6.4,3.5,-11.4,1.0
Cc1cc(N2CCCCC2)nc2c(C)cccc12,-22.6,0.684,i,-4.7,-6.1,10.0,1.6,-1.6,-6.3,0.9
Cc1cc(O)cc(O)c1C=NCc1ccco1,9.3,0.686,i,13.2,-1.1,5.8,-17.5,-3.1,-19.3,0.8
COc1ccc(OCc2nc3c4cc(OC)c(OC)cc4nc(=S)n3[nH]2)cc1,4.6,0.677,·,·,·,·,9.3,·,-14.2,-0.1
CCOC(=O)c1c(C)n(C)c2cc(Br)c(O)c(O)c12,5.9,0.703,i,0.4,-5.1,-5.5,3.1,-54.5,-7.9,-0.9
Clc1cccc(Cl)c1CSc1nnc(-c2sccc2-n2cccc2)o1,3.4,0.762,·,·,·,·,2.4,·,14.1,-0.4
Cc1nn(-c2ccccc2)c(C)c1C(=O)NCc1ccc(S(N)(=O)=O)cc1,1.3,0.685,i,12.1,8.2,1.7,0.5,-2.1,4.4,-0.6
O=C(CCc1ccc(S(=O)(=O)NC2CCCCC2)cc1)NCc1ccccc1,3.2,0.775,·,·,·,·,1.6,·,-1.4,0.5
COc1ccc(-c2coc3cc(OC(C)=O)ccc3c2=S)cc1,-4.8,0.648,i,-46.2,-63.0,-14.2,·,-0.5,·,·
Cc1c(NC(=O)CC(=O)Nc2c(C)n(C)n(-c3ccccc3)c2=O)c(=O)n(-c2ccccc2)n1C,-1.7,0.679,·,·,·,·,-7.6,·,-14.8,-0.2
COc1ccc(NC(=O)C(=O)NNC(=O)C(C)Oc2ccc(Cl)cc2Cl)cc1 (centres undefined),6.4,0.708,i,-7.3,-5.2,-1.5,-6.8,-2.7,-11.7,0.4
COC(=O)C/C(O)=C(/N=Nc1cccc(C(F)(F)F)c1)C(=O)OC,5.9,0.697,i,28.4,21.1,0.7,·,-1.2,5.9,-0.1
Cc1ccc(N=C2SC(C(=O)Nc3ccc(OC(F)(F)F)cc3)C(N)=C2C(=O)Nc2c(C)cc(C)cc2C)cc1 (centres undefined),4.9,0.694,i,2.1,3.1,11.0,98.9*,4.7,·,1.6
O=S1(=O)[C@H]2C[C@@H]3C=C[C@@]2(CN1Cc1cccc(F)c1)O3,-0.1,·,i,16.8,13.3,-4.6,-7.1,7.2,-3.2,0.2
CCn1c(C(O)c2cccc(OC)c2OC)nc2ccccc21 (centres undefined),3.8,0.771,·,·,·,·,-9.8,·,-0.7,0.4
Cc1cc(=O)oc2cc(OCC(=O)N/N=C/c3ccccc3O)ccc12,·,·,i,-2.7,6.2,0.8,0.6,-3.5,5.4,-0.8
N#CCC(=O)Nc1ccccc1C(=O)O,1.4,0.711,·,·,·,·,8.6,·,-8.3,-0.7
CC(=O)Nc1n[nH]c(-c2ccc(C)cc2)c1C,5.1,0.682,i,15.6,14.9,-0.7,-2.0,-3.1,-8.6,-0.7
CCO[C@@H]1OC(C(=O)Nc2ccccc2)=C[C@H](c2coc3ccccc3c2=O)[C@H]1CCCO,0.8,·,i,-35.0,-60.0,0.3,-13.3,2.5&6.0,6.9,-0.8
Cc1ccc(C(=O)c2nccn2C)cc1C,1.2,0.688,i,1.0,8.6,0.7,1.2,1.0,-9.8,-2.5
Cc1ccc(-c2csc(NC(=O)CN3CC(C)OC(C)C3)n2)cc1 (centres undefined),1.4,0.63,i,-5.0,-6.0,-1.6,12.2,-1.2,-3.7,0.5
CC(=O)c1ccc(NC(=O)C(C)NCc2ccc(Cl)cc2)cc1 (centres undefined),-4.7,0.659,i,5.2,-0.4,1.5,1.0,-0.3,-4.5,0.8
Cc1ccccc1NC(=O)CCn1c(=O)oc2ccccc21,1.2,0.718,i,2.6,5.7,0.7,-1.3,3.1,-3.3,-0.4
Cc1nc2c(C)cccn2c1C(=O)c1ccccc1,9.3,0.718,i,-15.7,-12.2,-6.5,-2.7,-3.7,1.4,0.7
O=C(NCCCn1ccnc1)c1cccc(S(=O)(=O)Nc2ccccc2F)c1,1.5,0.654,·,·,·,·,·,·,-7.4,0.8
Cc1ccc(OCC(=O)c2cc(C)c(C)cc2C)c([N+](=O)[O-])n1,-4.9,0.738,·,·,·,·,-0.3,·,1.9,-0.5
CC(C)(C)NC(=O)C(c1ccc(F)cc1)N(CCc1ccccc1)C(=O)c1ccn[nH]1 (centres undefined),1.6,0.695,i,4.2,10.5,1.9,-4.4,0.1,-19.2,-0.4
Cc1cc(NC(=O)COC(=O)c2ccccc2O)no1,-2.4,0.696,i,·,·,·,-5.4,-1.8,·,1.1
COc1ccc(CC(=O)OCC(=O)Nc2ncc(Cl)c(C)c2Cl)cc1,1.7,0.64,i,-0.2,-4.5,1.5,·,-1.1,·,·
Cc1cc(NC(=O)CCN2C(=O)C3C4C=CC(C4)C3C2=O)c2ccccc2n1 (centres undefined),0.5,0.732,·,·,·,·,0.2,·,-3.9,0.0
Clc1cc(Cl)c2nc(N3CCCCC3)sc2c1,3.0,0.719,·,·,·,·,-4.2,·,-3.6,-6.5
COc1ccc(/C(N)=N/OC(=O)Cc2cccs2)cc1,-1.3,0.655,i,1.6,-6.6,-0.9,-0.3,7.8,-16.8,-2.1
CN(C)c1cccc(C(=O)Nc2cccc(S(=O)(=O)NC3=NCCC3)c2)c1,-7.3,0.665,i,-5.4,-2.0,-1.8,·,3.7,-9.0,-1.4
COc1cc(C(=O)O[C@H]2CC(C)=CC[C@@]3(C)CC[C@@](O)(C(C)C)[C@H]23)ccc1O,3.8,0.627,i,-2.0,-17.2,-2.2,1.7,0.3,1.2,0.4
Fc1ccc2cnc(-c3ccccc3)c(-c3ccc(C(F)(F)F)cc3)c2c1,1.2,0.691,i,3.4,4.9,-2.0,-3.6,-0.3,·,-0.1
CCOC(=O)c1cc2c(c(CCO)n1)[C@@H](CCO)N(S(=O)(=O)C(C)(C)C)C2,-2.7,0.696,i,-5.0,21.3,2.4,·,-1.8,·,·
NNC(=O)[C@H]1C[C@@H]1c1ccccc1,-0.2,0.696,i,16.4,0.8,0.1,-3.8,0.9,8.8,-0.1
CC1=C(CO)C(=O)OC([C@@H](C)C2CC[C@H]3C4C[C@H]5O[C@]56[C@@H](O)C=CC(=O)[C@]6(C)C4CC[C@]23C)C1 (some centres undefined),5.6,0.693,i,·,·,·,108.6*,8.1,43.4,-0.6
